Screening results: PubChem, Broad Institute
Vaccinia inh – blocks a specific stage of Vaccinia orthopoxvirus infection, primary screen, cell-based, single point; Vaccinia-infected cells, mCherry/Venus stage reporter fluorescence; hits give low values; some inactives read as strong as hits; activity change (mCherry), % (concentration not given with the values); actives 0.01% (n = 89,000); AID 1053133, 2014;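 active means mCherry past -33% and 40 or more points under the early reporter, replicates agreeing; inconclusive means past -33% without that gap or agreement; tested in A549 cells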;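 further: scaled between vehicle wells and reference inhibitor wells; 23 nL library stock went into each well; one replicate is shown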
Vaccinia inh Venus – also measured in Vaccinia inh; calls as there; activity change (Venus), %; measured here: Venus reporter, other viral stage;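 negative = less Venus signal; first of two replicates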
Starred values were filed as active, the others as inactive; ? = inconclusive; · = not tested or not shown; & = joins results of further samples.

SMILES	Vaccinia inh	Vaccinia inh Venus
CCCNC(=O)[C@@H]1[C@@H](CO)[C@@H]2Cn3c(ccc(-c4ccccc4)c3=O)[C@@H]2N1C(=O)C1CCC1	-1	0
N#C[C@@H]1[C@@H](c2ccccc2-c2cccc(F)c2)[C@H](CO)N1C(=O)C1CCCC1	-7	4
O=C(C[C@@H]1CC[C@H]2[C@@H](COC[C@H](O)CN2Cc2ccncc2)O1)NCC1CC1	1	5
COCC(=O)Nc1ccc2c(c1)[C@H]1C[C@@H](CC(=O)N3CCOCC3)O[C@@H](CO)[C@H]1O2	11	20
C[C@H](CO)N1C[C@H](C)[C@@H](CN(C)S(=O)(=O)c2ccccc2F)Oc2cc(C#Cc3ccccc3)ccc2S1(=O)=O	-7	-10
CCCNC(=O)Nc1ccc2c(c1)OC[C@H](C)NC[C@@H](C)[C@@H](OC)CN(C)C2=O	-3	-1
C[C@H](O)C#Cc1ccc2c(c1)O[C@@H](CN(C)C(=O)c1ccncc1)[C@@H](C)CN([C@@H](C)CO)S2(=O)=O	12	1
O=C(Cc1ccccn1)NCC[C@H]1CC[C@@H](NC(=O)CN2CCOCC2)[C@@H](CO)O1	-5	1
COc1ccc(CN(C)C[C@@H]2OCCCC[C@H](C)Oc3ccc(NS(=O)(=O)c4cccs4)cc3C(=O)N([C@H](C)CO)C[C@H]2C)cc1	-25	-19
C[C@@H]1CN([C@@H](C)CO)C(=O)c2cc(C#Cc3ccccc3F)cnc2O[C@@H]1CN(C)S(=O)(=O)c1ccccc1F	?	·
O=C(Nc1ccccc1)N1CCCCN2[C@@H](CO)[C@H](c3ccc(C4=CCCCC4)cc3)[C@@H]2C1	?	·
COc1ccccc1S(=O)(=O)N[C@@H]1CC[C@@H](CCNC(=O)C2CC2)O[C@H]1CO	-3	2
C[C@@H]1CN([C@H](C)CO)C(=O)c2cc(NC(=O)CCCCCC(=O)Nc3ccccc3N)ccc2O[C@@H]1CN(C)S(=O)(=O)c1ccc(F)cc1	-6	-1
C[C@H]1CCCCO[C@@H](CN(C)C(=O)c2ccccc2)[C@@H](C)CN([C@@H](C)CO)C(=O)c2cc(NC(=O)C3CCCCC3)ccc2O1	-6	-11
C[C@H](CO)N1C[C@H](C)[C@H](CN(C)C(=O)Nc2cccc(F)c2)OCc2ccccc2-c2ccccc2C1=O	-1	3
C[C@H](CO)N1C[C@H](C)[C@H](CN(C)Cc2ccncc2)Oc2ncc(C#Cc3ccccn3)cc2C1=O	27	24
O=C(NC1CCCC1)N1CCCCN2[C@@H](CO)[C@H](c3ccc(/C=C/c4ccccc4)cc3)[C@@H]2C1	?	·
CS(=O)(=O)N1CCCCN2[C@H](CO)[C@H](c3ccc(Br)cc3)[C@H]2C1	21	11
O=C(c1cccnc1)N1CCCCN2[C@@H](CO)[C@H](c3ccc(C#Cc4ccccn4)cc3)[C@@H]2C1	13	7
CCCNC(=O)C[C@H]1C[C@@H]2c3cc(NC(=O)NC4CCCCC4)ccc3O[C@@H]2[C@H](CO)O1	-2	4
O=C(C[C@@H]1C=C[C@@H](NC(=O)CC2CC2)[C@H](CO)O1)NCc1ccc(-c2ccccc2)cc1	-14	-8
C[C@@H]1CN([C@H](C)CO)C(=O)c2cc(NC(=O)Cn3cnnn3)ccc2O[C@@H]1CN(C)S(=O)(=O)c1ccc(F)cc1	-8	15
C[C@@H]1CN([C@@H](C)CO)S(=O)(=O)c2ccc(C#Cc3cccc(F)c3)cc2O[C@@H]1CN(C)C(=O)CN1CCOCC1	-31	-26
C[C@H](CO)N1C[C@H](C)[C@@H](CN(C)Cc2ccc3c(c2)OCO3)OCCCC[C@H](C)Oc2ccc(NS(=O)(=O)c3ccccc3)cc2C1=O	?	·
Cc1noc(C)c1NC(=O)Nc1ccc2c(c1)C(=O)N([C@H](C)CO)C[C@H](C)[C@H](CN(C)C(=O)Nc1ccc3c(c1)OCO3)OCCCC[C@@H](C)O2	18	1
N#C[C@H]1[C@H](c2ccc(-c3cccnc3)cc2)[C@H](CO)N1C(=O)C1CCC1	-1	-6
COCC(=O)N(C)C[C@@H]1Oc2cc(C#Cc3ccccc3)ccc2S(=O)(=O)N([C@H](C)CO)C[C@@H]1C	2	-3
C[C@@H]1CN([C@@H](C)CO)C(=O)Cc2cc(NS(C)(=O)=O)ccc2O[C@H]1CN(C)C(=O)Nc1ccccc1	3	5
C[C@@H]1CN([C@@H](C)CO)C(=O)c2cccc(NC(=O)Nc3ccc4c(c3)OCO4)c2O[C@H]1CN(C)Cc1ccc(C(F)(F)F)cc1	-24	-15
CC(C)NC(=O)N[C@H]1CC[C@H](CCN)O[C@@H]1CO	2	12

At a glance, part of the list above:
SMILES	Vaccinia inh	Vaccinia inh Venus
C[C@H](CO)N1C[C@H](C)[C@@H](CN(C)Cc2ccc3c(c2)OCO3)OCCCC[C@H](C)Oc2ccc(NS(=O)(=O)c3ccccc3)cc2C1=O	?	·
Cc1noc(C)c1NC(=O)Nc1ccc2c(c1)C(=O)N([C@H](C)CO)C[C@H](C)[C@H](CN(C)C(=O)Nc1ccc3c(c1)OCO3)OCCCC[C@@H](C)O2	18	1
N#C[C@H]1[C@H](c2ccc(-c3cccnc3)cc2)[C@H](CO)N1C(=O)C1CCC1	-1	-6
COCC(=O)N(C)C[C@@H]1Oc2cc(C#Cc3ccccc3)ccc2S(=O)(=O)N([C@H](C)CO)C[C@@H]1C	2	-3
C[C@@H]1CN([C@@H](C)CO)C(=O)Cc2cc(NS(C)(=O)=O)ccc2O[C@H]1CN(C)C(=O)Nc1ccccc1	3	5
C[C@@H]1CN([C@@H](C)CO)C(=O)c2cccc(NC(=O)Nc3ccc4c(c3)OCO4)c2O[C@H]1CN(C)Cc1ccc(C(F)(F)F)cc1	-24	-15
CC(C)NC(=O)N[C@H]1CC[C@H](CCN)O[C@@H]1CO	2	12

Later entries.
SMILES	Vaccinia inh	Vaccinia inh Venus
O=C(c1cccc(F)c1)N1CCCCN2[C@H](CO)[C@H](c3ccc(-c4ccncc4)cc3)[C@@H]2C1	39	9
CCOC(=O)c1cc2c(c(-c3cccc(-c4cccc(OC)c4)c3)n1)[C@@H](CCO)N(S(=O)C(C)(C)C)C2 (stereo partly drawn)	-28	-10
COCCNC(=O)C[C@@H]1C[C@H]2c3cc(N(C)C)ccc3O[C@H]2[C@@H](CO)O1	-3	6
C[C@H]1CN([C@@H](C)CO)S(=O)(=O)c2ccc(Br)cc2O[C@H]1CN(C)C(=O)NC1CCCCC1	-8	0
O=C(C[C@@H]1CC[C@@H]2[C@H](COC[C@H](O)CN2Cc2cccc(Cl)c2)O1)Nc1nccs1	-9	-9
Cc1ccccc1-c1cnc2c(c1)C(=O)N([C@H](C)CO)C[C@@H](C)[C@@H](CN(C)Cc1ccncc1)O2	8	8
CC(=O)N(C)C[C@H]1Oc2cc(C#Cc3ccccc3)ccc2S(=O)(=O)N([C@@H](C)CO)C[C@@H]1C	-31	-17
C[C@@H]1CN([C@H](C)CO)C(=O)Cc2cc(NC(=O)Cc3cn(C)c4ccccc34)ccc2O[C@@H]1CN(C)C(=O)Nc1cccc2ccccc12	15	13
CC(C)NC(=O)N1CC2(C1)[C@H](c1ccccc1)[C@H](CO)N2C(=O)C1CC1	-3	-7
O=C(C1CCCCC1)N1C[C@H]2[C@@H](c3ccccc31)[C@@H](CO)N2C(=O)c1ccccc1	-1	15
O=C(Nc1cccc(F)c1)N1CC(=O)N2[C@H](CO)[C@@H](c3ccc(-c4cccc(F)c4)cc3)[C@@H]2C1	?	·
Cc1ccc(-c2ccc3c(c2)O[C@@H](CN(C)C(=O)C2CCC2)[C@H](C)CN([C@H](C)CO)S3(=O)=O)cc1	?	·
C[C@@H]1CN([C@@H](C)CO)C(=O)CCCn2cc(nn2)CO[C@H]1CN(C)C(=O)Nc1cccc(F)c1	30&8	1&2
Cc1noc(C)c1NC(=O)Nc1ccc2c(c1)C(=O)N([C@@H](C)CO)C[C@@H](C)[C@H](CN(C)C(=O)C1CCCCC1)OCCCC[C@H](C)O2	8	4
CC(C)C#Cc1cnc2c(c1)C(=O)N([C@H](C)CO)C[C@H](C)[C@H](CN(C)C(=O)Nc1cccc(F)c1)O2	-14	-16
O=C(Nc1cccc(Cl)c1)N[C@@H]1CC[C@@H](CCn2cc(Cc3ccccc3)nn2)O[C@@H]1CO	19	13
CN1CCN(C(=O)C[C@@H]2CC[C@@H]3[C@@H](COc4ccc(NC(=O)C5CC5)cc4C(=O)N3C)O2)CC1	17	4
C[C@@H]1CN([C@H](C)CO)C(=O)c2cc(NC(=O)Nc3ccccc3)ccc2O[C@@H]1CN(C)C	8	-1
COc1ccc(S(=O)(=O)N2CC[C@@H]3[C@H]2c2cc(-c4ccc(C#N)cc4)ccc2N[C@@H]3CO)cc1	3	15
C[C@@H]1CN([C@@H](C)CO)C(=O)c2cc(NC(=O)CCCCCC(=O)Nc3ccccc3N)ccc2O[C@H]1CN(C)C(=O)Nc1ccc(F)cc1	-3	-1
C[C@@H]1CCCCO[C@H](CN(C)C(=O)Nc2ccc(F)cc2)[C@H](C)CN([C@H](C)CO)C(=O)c2cc(NS(C)(=O)=O)ccc2O1	17	11
O=C(Nc1ccc(-c2ccccc2)cc1)[C@@H]1[C@@H](CO)[C@@H]2Cn3c(cccc3=O)[C@H]1N2Cc1cccnc1	-6	0
C[C@H](CO)N1C[C@H](C)[C@H](CN(C)C(=O)NC2CCCCC2)OCc2ccccc2-c2ccccc2C1=O	7	2
COc1ccc(-c2ccc([C@H]3[C@H]4CN(C(=O)C5CC5)CC(=O)N4[C@H]3CO)cc2)cc1	-6	4
C[C@@H]1CN([C@H](C)CO)C(=O)c2cccc(NC(=O)CCCCCC(=O)Nc3ccccc3N)c2O[C@H]1CN(C)Cc1ccc(Oc2ccccc2)cc1	-15	-1
C[C@@H]1CN([C@H](C)CO)C(=O)c2cccc(NC(=O)c3ccc(-c4nccs4)cc3)c2O[C@@H]1CN(C)C(=O)Nc1ccccc1	-6	5
C[C@@H]1CCCCO[C@H](CN(C)Cc2ccc(C(=O)O)cc2)[C@H](C)CN([C@@H](C)CO)C(=O)c2cc(NC(=O)c3ccccc3)ccc2O1	8	3
O=C(c1cccnc1)N1CC(=O)N2[C@H](C1)[C@@H](c1ccc(/C=C/c3ccccc3)cc1)[C@@H]2CO	-12	-13
CC(C)C#Cc1ccc2c(c1)O[C@@H](CN(C)C(=O)Cc1ccccn1)[C@@H](C)CN([C@@H](C)CO)S2(=O)=O	-4	-2
CCCC(O)C#Cc1cnc2c(c1)C(=O)N([C@H](C)CO)C[C@H](C)[C@H](CN(C)S(=O)(=O)c1ccccc1)O2 (stereo partly drawn)	12	8
CC(C)NC(=O)N1[C@@H]2CNC[C@H]1C2c1ccc(/C=C/c2ccccc2)cc1 (stereo partly drawn)	-9&-11	-4&-3
O=C(c1cccnc1)N1CC(=O)N2[C@H](C1)[C@@H](c1ccc(-c3ccccc3F)cc1)[C@@H]2CO	-2	3
COCC(=O)N(C)C[C@@H]1Oc2cc(C#C[C@H](C)O)ccc2S(=O)(=O)N([C@@H](C)CO)C[C@H]1C	-2	6
C[C@@H]1CN([C@@H](C)CO)S(=O)(=O)c2ccc(C3=CCCC3)cc2O[C@H]1CN(C)Cc1cccnc1	16	8
C[C@@H]1CN([C@@H](C)CO)C(=O)c2cc(NC(=O)Cc3ccccc3)ccc2O[C@H]1CN(C)C(=O)Nc1ccc2c(c1)OCO2	16	5
CO[C@H]1CN(C)C(=O)c2cc(NS(=O)(=O)CC(F)(F)F)ccc2OC[C@H](C)N(Cc2cccnc2)C[C@@H]1C	8	9
C/C=C/c1cnc2c(c1)C(=O)N([C@H](C)CO)C[C@@H](C)[C@H](CN(C)S(=O)(=O)c1ccc(F)cc1)O2	-2	-7
COc1ccc(S(=O)(=O)Nc2ccc3c(c2)[C@H]2C[C@@H](CC(=O)O)O[C@@H](CO)[C@H]2O3)cc1	7	6
Cc1ccc(S(=O)(=O)N(C)C[C@@H]2OCCCC[C@H](C)Oc3ccc(NC(=O)Nc4c(C)noc4C)cc3C(=O)N([C@@H](C)CO)C[C@H]2C)cc1	16	1
C[C@H](CO)N1C[C@H](C)[C@@H](CN(C)S(=O)(=O)c2cn(C)cn2)Oc2ccc(NC(=O)CCCN(C)C)cc2C1=O	14	6
COc1ccc2c3c([nH]c2c1)[C@@H](CO)N(C(C)=O)CC31CN(Cc2cc(-c3ccccc3)on2)C1	?	·
C[C@H](CO)N1C[C@H](C)[C@@H](CN(C)C(=O)Nc2cccc3ccccc23)Oc2c(cccc2N(C)C)C1=O	?	·
COCC(=O)N1C[C@@H](C)[C@@H](OC)CN(C)C(=O)c2ccc(NC(=O)c3ccc(F)cc3)cc2OC[C@H]1C	17	15
C[C@@H]1CN([C@@H](C)CO)C(=O)c2c(c3ccccc3n2C)-c2ccccc2CO[C@@H]1CN(C)Cc1ccc(Cl)c(Cl)c1	-24	-10
O=C(Nc1ccc2c(c1)[C@@H]1C[C@H](CC(=O)N3CCCCC3)O[C@H](CO)[C@@H]1O2)c1ccc2c(c1)OCO2	11	11
COCC#Cc1cnc2c(c1)C(=O)N([C@@H](C)CO)C[C@H](C)[C@@H](CN(C)C(C)=O)O2	8	4
CC(=O)N(C)C[C@H]1Oc2cc(Br)ccc2S(=O)(=O)N([C@@H](C)CO)C[C@@H]1C	24	10
CCC(=O)N1CCCCN2[C@H](C1)[C@@H](c1ccc(-c3ccc(F)cc3)cc1)[C@@H]2CO	-26	-40
COc1ccc(NC(=O)N2CCC3(CC2)CN(C(C)=O)[C@H](CO)c2[nH]c4cc(OC)ccc4c23)cc1	5	0

These rows are one share of the data (hit frequency here may not be typical).
